Source: PubChem BioAssay
NPYLR7 agonist: activates Aedes aegypti NPYLR7 receptor; actives 0.15% (n = 270,000); activation, % at 10 µM; HEK293T NPYLR7/Galpha15, GCaMP6s calcium fluorescence; AID 1259423; in the data active means activation above about 40%;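 further: 0% = vehicle and 100% = reference agonist at the receptor; some compounds past the cut are filed as inactive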
NPYLR7 agonist max-min: further read-out of NPYLR7 agonist, marked with its call; activation, %; measured here: Max-Min RFU normalised activation; some inactives read as strong as hits;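 span of the calcium signal over five minutes; 0% = vehicle and 100% = native peptide agonist; compound fluorescence can raise it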
* marks the source's active call; other numbers are inactive results; & = joins results of further samples.

SMILES	NPYLR7 agonist	NPYLR7 agonist max-min
Cc1ccc(C(=O)CSc2nnc(Cc3ccccc3)n2-c2cccc(C(F)(F)F)c2)cc1	6	16
Cc1ccc(Cn2c(=O)c3c(nc4n(CCN(C)C)c(C)cn34)n(C)c2=O)cc1	-9	-12
O=C(NCC1OCCc2ccccc21)c1cn(Cc2c(F)cccc2F)nn1 (centres undefined)	8	1
Cc1nc(-c2ccccc2)nc2c1C(=O)CC(c1ccc(N(C)C)cc1)S2 (centres undefined)	-3	-7
C=CCN1C(=O)NC(c2ccccc2F)C2=C1CN(CCc1ccccn1)C2=O (centres undefined)	20	24
CCOC(=O)C1(CCOc2ccccc2)CCN(Cc2nc3c(s2)CCCC3)CC1	10	5
OC[C@@H](O)[C@@H](O[C@@H]1O[C@H](CO)[C@@H](O)[C@H](O)[C@H]1O)[C@H](O)[C@@H](O)CO	-1	-6
CCCCc1ccc(-c2ccc(-n3cncc3C(=O)N3CCC3)cc2)cc1	0	4
COc1ccccc1NC(=O)c1cc2cc(Br)ccc2oc1=N	-6	-10
COc1ccc(C(CC(=O)N2CCc3ccccc3C2)c2cn(C)c3ccccc23)cc1OC (centres undefined)	5	3
O=C(Cn1nnc(-c2cccs2)n1)N1CCN(C(=O)c2ccco2)CC1	0	1
O=C(Nc1ccc2c(c1)OCO2)c1ccc(CSc2nnc(-c3ccco3)n2-c2ccccc2F)cc1	2	1
COc1ccc(NC(=O)CSc2cc(C)ccc2C)cc1Cl	7	5
CCOC(=O)NC1CCCN(S(=O)(=O)c2ccc(C)c(F)c2)C1 (centres undefined)	12	8
Cc1ccc(CN(CCc2c[nH]c3ccccc23)C(=O)CN(C(=O)c2ccc([N+](=O)[O-])cc2Cl)C(C)C)cc1	4	-5
O=C(N[C@@H]1C[C@H]1c1ccccc1)c1cc(COc2ccc3c(c2)CCCC3)on1	0	-3
NNc1nc(NCc2ccccc2)nc(NCc2ccccc2)n1	-3	-8
COc1cccc(Cc2c(C)nc(C)nc2N2CCN(C(=O)c3ccccc3C)CC2)c1	4	11
Cc1ccc(N(CC(=O)NCCc2nncn2C(C)C)S(C)(=O)=O)cc1	13	4
CCC(C)NC(=O)CCn1c(=O)c2ccccc2n2c(=O)n(CC(=O)NCc3cccs3)nc12 (centres undefined)	1	3
O=C(NCc1cccc(F)c1)Nc1nn(Cc2ccc(COc3ccc4c(c3)OCO4)cc2)c2ccc(C(F)(F)F)cc12	1	14
CCOCCCNc1nc(Nc2cc(C)cc(C)c2)c2cnn(-c3ccccc3)c2n1	2	0
Cc1cccc(CS(=O)(=O)NCC(c2ccsc2)N2CCc3ccccc3C2)c1 (centres undefined)	11	-3
O=S(=O)(Nc1cc(F)ccc1F)c1ccc(F)cc1Br	4	2
CN(C(=O)C1Cc2ccccc2CN1)C1CCOCC1 (centres undefined)	0	-1
Cc1ccccc1CN1CCCC(CCNS(=O)(=O)C2CC2)C1 (centres undefined)	-3	-4
O=S(=O)(c1cccc(Cl)c1Cl)N(Cc1nnc(-c2ccc(Cl)cc2)o1)C1CC1	0	8
COc1ccc(/C=C/C(=O)c2ccc(O)cc2O)cc1OC	-2	-12
CCOc1ccc(/C=C2\N=C(c3ccco3)OC2=O)cc1	-20	-19
Cc1ccc(-c2nc(Cl)nc3ccccc23)cc1	-3	11
CN(CC1CCN(CCc2ccc(Cl)cc2)CC1)C(=O)C1CC12CCC2 (centres undefined)	18	14
COC(=O)c1c(C)[nH]c(C(=O)C(C)Sc2nnc(C3CC3)n2C2CC2)c1C (centres undefined)	-1	-2
O=C(NC1CCN2CCCCC12)C1CCS(=O)(=O)C1 (centres undefined)	7	7
CCc1c(C)nn(CC(=O)NC(C)c2n[nH]c(C)n2)c1C (centres undefined)	3	3
Cc1ccnc(N=Cc2nc(-c3ccccc3F)oc2O)c1	-4	-12
CCc1nc2n(n1)C(=O)C(C(c1ccc(OC)cc1)N1CCc3ccccc3C1)S2 (centres undefined)	-3	-5

Reformatted: entries from further up
Each structure is followed by: NPYLR7 agonist | NPYLR7 agonist max-min
> CCc1nc2n(n1)C(=O)C(C(c1ccc(OC)cc1)N1CCc3ccccc3C1)S2 (centres undefined)
  -3 | -5
> Cc1ccc(-c2nc(Cl)nc3ccccc23)cc1
  -3 | 11
> Cc1ccccc1CN1CCCC(CCNS(=O)(=O)C2CC2)C1 (centres undefined)
  -3 | -4
> COc1ccc(/C=C/C(=O)c2ccc(O)cc2O)cc1OC
  -2 | -12
> O=S(=O)(c1cccc(Cl)c1Cl)N(Cc1nnc(-c2ccc(Cl)cc2)o1)C1CC1
  0 | 8
> O=C(NC1CCN2CCCCC12)C1CCS(=O)(=O)C1 (centres undefined)
  7 | 7
> CCOc1ccc(/C=C2\N=C(c3ccco3)OC2=O)cc1
  -20 | -19

The list continues:
SMILES	NPYLR7 agonist	NPYLR7 agonist max-min
CCOc1ccc(C(C)=O)cc1CN(C)Cc1ccc(C)cc1	1	0
Cc1cc(C(C(=O)O)N(C)CCOc2ccccc2)ccc1F (centres undefined)	14	18
CCOc1ccc(O)c(C2Nc3ccc(C)cc3-c3nc(C4CC4)nn32)c1 (centres undefined)	10	7
O=C(CNC(=O)NC1CC1)NC1CC1c1ccccc1C(F)(F)F (centres undefined)	7	5
Cc1ccc(-n2nc(C(=O)N3CCOC(C(F)(F)F)C3)c(O)cc2=O)cc1 (centres undefined)	2	-14
CC(C)c1cc(C(=O)N2CCn3c(C(N)=O)cnc3C2)cs1	-2	-6
FC(F)(F)c1cccc(N2CCN(c3nc(-c4cccc(Cl)c4Cl)nc4ccccc34)CC2)c1	-1	2
O=C(CSc1nnc(-c2ccc(Cl)s2)o1)NC1CCCCC1	13	6
CCOC(=O)c1ccc2c(c1)nc(SCc1cccc(I)c1)n2CCOC	-5	-6
CCOc1cnn(C)c(=O)c1Nc1cccc(C(=O)NCCOC)c1	-2	6
COCCCNC(=O)CC(c1cccc(F)c1)c1cn(Cc2ccccc2)c2ccc([N+](=O)[O-])cc12 (centres undefined)	19	14
Cc1cc(NC(=O)N2CCN(C/C=C/c3ccccc3)CC2)no1	-8	-8
CC1Cc2ccccc2N1C(=O)CSc1nc2ccc(Cl)cc2[nH]1 (centres undefined)	1	-2
COc1ccc(-n2c(SCc3ccc(C(=O)O)cc3)nnc2-c2ccco2)cc1	-5	-9
Cc1ccc(CNC(=O)C2(C)CCN2C(=O)Cc2ccc(-c3ccccc3)cc2)cc1 (centres undefined)	8	4
CCCn1c(C(C)NCc2ccccc2)nc2ccccc2c1=O (centres undefined)	-3	6
Cc1cnc(CNC(=O)c2cncn2-c2cccc(-c3cccc4c3sc3ccccc34)c2)cn1	21	24
CCCC(NS(=O)(=O)c1ccc(C)c(C(=O)O)c1)c1ccccc1 (centres undefined)	0	-4
Cc1cc(S(=O)(=O)Nc2ccc(CC(N)=O)cc2)ccc1OC(C)C	-2	-2
COCC(=O)N1C[C@H](N(C)C)C[C@H]1CO	23	18
COc1ccc(OCC(=O)Nc2cccc(C)n2)cc1	0	0
CS(=O)(=O)N(CC(O)Cn1c2ccccc2c2ccccc21)c1ccc(F)cc1 (centres undefined)	5	5
CC(C)OCCS(=O)(=O)NCC(=O)Nc1ccc(Br)cc1	4	4
COc1ccc(S(=O)(=O)Nc2ccc(N(C)C)c(CN(Cc3ccco3)C(=O)NC(C)(C)C)c2)cc1	26	23
COc1ccc(N2C(=O)C3N=NN(Cc4ccccc4C)C3C2=O)cc1 (centres undefined)	-6	-10
Brc1cnc(Nc2cnn(-c3ncccn3)c2)nc1	2	64
CCCCCCOc1ccc(C=C2SC(=O)NC2=O)cc1	-2	-4
CC(C)CN1CCC(CNC(=O)c2ccc(N3CCNC(=O)CC3)nc2)C1 (centres undefined)	11	7
CCN1CCN(C(C)CNc2ccc(C#N)c(Cl)c2)CC1 (centres undefined)	4	3
CCNc1nc(NCC)n2c(=S)[nH]nc2n1	-1	-2
CC(C)(C)CCN1CCN(Cc2nc(C(C)(C)C)no2)CC1	1	-2
CCn1c(SCc2cc3c(cc2Br)OCO3)nnc1C1CC1	16	14
CCSc1cc(-c2cc(-c3cccs3)[nH]c(=O)c2C#N)c(C)o1	-2	-3
CC(NC(=O)c1ccc(-n2cnnn2)cc1)C12CC3CC(CC(C3)C1)C2 (centres undefined)	-5	-5
CCOC(=O)c1sc(N2C(=O)C(O)=C(C(=O)c3cccs3)C2c2ccccc2F)nc1C (centres undefined)	1	0
CCC(C)NS(=O)(=O)c1ccc(F)c(OC)c1 (centres undefined)	-1	-3

Continued, overlapping the part above by 2 compounds.
SMILES	NPYLR7 agonist	NPYLR7 agonist max-min
CCOC(=O)c1sc(N2C(=O)C(O)=C(C(=O)c3cccs3)C2c2ccccc2F)nc1C (centres undefined)	1	0
CCC(C)NS(=O)(=O)c1ccc(F)c(OC)c1 (centres undefined)	-1	-3
O=C(NCCNc1ccc(Nc2cccnc2)nn1)c1ccc(F)cc1	0	-2
O=C(C1CCCC1)N(CCN1CCOCC1)Cc1cc(Cl)ccc1OCc1nc(CO)cs1	6	10
CCOc1ccc(NC(=O)NC(C(=O)Nc2nnc(-c3ccc(N(C)C)cc3)s2)C(C)CC)cc1 (centres undefined)	1	13
O=C(COc1cccc2ccccc12)N1CCN(S(=O)(=O)N2CCCCCC2)CC1	-3	-4
C=CCCC(=O)N1CCC(CCc2ccc3c(c2)OCO3)CC1	0	-7
Cc1cc(CN(C)C(=O)CC2(c3ccccc3)CC(=O)N(Cc3cccs3)C2=O)on1 (centres undefined)	8	11
Cc1cc(C)c(C2CC(=O)Nc3[nH]ncc32)cc1Cn1cncn1 (centres undefined)	-12	-19
CCOC(=O)c1[nH]c(C)c(C(=O)CN(CC)C(=O)Nc2c(Cl)cccc2Cl)c1C	-8	-1
COCCn1c(SCC(=O)c2ccccc2)nc2c(c1=O)SCC2	-5	-7
CCOC(=O)CC(c1cc(C(C)(C)C)c(O)c(C(C)(C)C)c1)P(=O)(OCC)OCC (centres undefined)	-7	-9
CCOC(=O)C1=C(C)N=c2sc(=C(C)C)c(=O)n2C1c1ccc2c(c1)OCO2 (centres undefined)	1	10
CC(=O)c1ccc(NC(=O)c2cccn(OCc3ccccc3F)c2=O)cc1	3	1

Two of the compounds above, with two lines to a compound.
The line under a structure holds: NPYLR7 agonist | NPYLR7 agonist max-min
O=C(NCCNc1ccc(Nc2cccnc2)nn1)c1ccc(F)cc1
  0 | -2
CCOc1ccc(NC(=O)NC(C(=O)Nc2nnc(-c3ccc(N(C)C)cc3)s2)C(C)CC)cc1 (centres undefined)
  1 | 13

(more compounds)
SMILES	NPYLR7 agonist	NPYLR7 agonist max-min
CC1CCC2C(CCCN2C(=O)CNC(=O)NC2CCCCC2)C1 (centres undefined)	-3	42
COc1c(O[C@@H]2O[C@H](CO)[C@@H](O)[C@H](O)[C@H]2O)cc2c(c1OC)-c1ccc(SC)c(=O)cc1C(NC(C)=O)CC2 (some centres undefined)	-2	-2
Cn1cc(S(=O)(=O)NCc2ccccc2)c(=O)n(C)c1=O	-2	-1
COc1ccc(NC(=O)C2Cc3ccc(C)cc3S2)cc1 (centres undefined)	1	1
Cc1ccsc1C1C2C(=O)CC(C)(C)CC2=Nc2ncnn21 (centres undefined)	15	6
N=C1CCCN1c1ccc(Cl)c(Cl)c1	6	4
CCCCN(CC(=O)N(Cc1cccn1C)CC(C)C)C(=O)c1ccc(F)cc1	1	7
COc1ccc(Cl)cc1NC(=O)CCC1CCCN(c2nc(C)cnc2C)C1 (centres undefined)	-3	-7
CCOC(=O)C1CCCN(CC(=O)N2N=C(c3ccc(OC)cc3)CC2c2ccccc2F)C1 (centres undefined)	-2	5
CS(=O)(=O)c1ccccc1C(=O)Nc1ccc(OCC#N)cc1	0	-2
O=C(Cn1nnnc1CN1CCc2ccccc2C1)N1CCC(Oc2cccnc2)CC1	6	0
Cc1noc(C)c1CCNc1ccc(Br)cn1	-8&13	-8&10
CNc1ncc(CN(C)Cc2cc3cc(OC)ccc3[nH]c2=O)cn1	2	0
Cc1ccc(C(=O)NNC(=O)N(C)Cc2ccc(Br)s2)cc1	17	16
Cc1cc(COC(=O)C(C)NC(=O)c2ccc(S(=O)(=O)N(C)C)cc2)on1 (centres undefined)	2	12
Cc1ccccc1-n1c(C)cc(C(=O)Nc2c[nH]ccc2=O)c1C	1	-1
COc1ccc(OC)c(CN(Cc2cccc(C(F)(F)F)c2)Cc2nc(C(=O)N3CCOCC3)co2)c1	10	-1
c1cnc(Oc2ccc(CN3CCCC(N4CCc5ccccc5C4)C3)cc2)nc1 (centres undefined)	3	2
O=C(NC1CCCCC1)O[C@@H]1CO[C@H]2[C@@H]1OC[C@@H]2n1nnnc1SC1CCCC1	-5	-13
Cn1c(=O)c(C(=O)Nc2nc(C34CC5CC(CC(C5)C3)C4)cs2)c(O)c2ccccc21	8	7
COC(=O)c1sccc1-c1ccc(CN2CCC3(CC2)Nc2ccccc2C(=O)N3OC)o1	0	14
O=C1c2ccccc2S(=O)(=O)N1c1cccc(Cl)c1	8	2
CC(C)(C)OC(=O)N1CCC(C(=O)Nc2nnc(-c3cccc(Br)c3)o2)CC1	-1	-4
O=C(c1csc(CSc2nnc(-c3ccccc3Cl)n2-c2cccc(Cl)c2)n1)N1CCc2ccccc2C1	-4	-1
O=C(CC1Cc2ccccc2C1)N1CCCC1c1nnc2c(C(F)(F)F)cccn12 (centres undefined)	-8	-12
CC(=O)CSc1nnc2n1CCN2c1ccccc1	0	1
CC(C)Nc1ncccc1C(=O)NCCc1ccc(S(N)(=O)=O)cc1	-17	-23
CCN(CC)C(=O)[C@@H]1C[C@H](N)CN1C(=O)C(=O)N1CCc2ccccc21	11	10
CCN(CC)c1ncccc1CNC(=O)c1cc2nc(C)cc(C)n2n1	-3	-2
COCCCn1c(-c2ccccc2)csc1=Nc1cccc(OC)c1	-10	-12
Cc1cc(S(=O)(=O)NNC(=O)Cc2cccs2)ccc1Br	-6	-6

Only part of the results is shown; count on the stated rates, not on these rows.
